TRPML1 inh = blocks the human TRPML1 channel | TRPML1-inducible cells, Ca2+ dye fluorescence, FDSS; active compounds read low; inhibition of EC80 agonist-evoked calcium signal | Q9GZU1 | activity change, negative = inhibition, % (test concentration not listed) | 390,000 tested, 0.02% active | AID 624415; in the data active means activity change below about -50%; inconclusive means about -30% to -50%; inactive means above about -30%;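 also: stimulus is agonist 54-4 at its EC80 concentration; % is scaled to controls: 0 for no effect and ±100 for the full control effect; compound concentration not given in the record; the text of the record puts the active cut at -80%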
Target sequence (Q9GZU1 whole entry, looked up): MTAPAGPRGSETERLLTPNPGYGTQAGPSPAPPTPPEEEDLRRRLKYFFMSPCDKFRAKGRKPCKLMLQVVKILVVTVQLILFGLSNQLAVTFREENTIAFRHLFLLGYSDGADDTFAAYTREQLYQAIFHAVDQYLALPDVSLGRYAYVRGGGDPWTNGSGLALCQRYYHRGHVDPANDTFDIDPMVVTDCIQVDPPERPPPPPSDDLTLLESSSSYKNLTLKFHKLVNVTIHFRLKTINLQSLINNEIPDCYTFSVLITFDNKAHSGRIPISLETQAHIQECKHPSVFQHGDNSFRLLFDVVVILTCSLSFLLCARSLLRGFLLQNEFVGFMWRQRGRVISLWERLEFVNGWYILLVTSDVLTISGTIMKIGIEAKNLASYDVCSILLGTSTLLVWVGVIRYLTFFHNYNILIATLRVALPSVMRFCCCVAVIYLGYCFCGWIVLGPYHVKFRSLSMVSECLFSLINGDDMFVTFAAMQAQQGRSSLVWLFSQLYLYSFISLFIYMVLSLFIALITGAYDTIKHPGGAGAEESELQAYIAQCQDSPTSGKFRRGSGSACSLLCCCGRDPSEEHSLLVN
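TRPML1-DL cells, Tet-induced overnight (~16 h, 37 °C) at 1,500 cells/well, were loaded with Ca8 no-wash dye plus quencher for 45-90 min at room temperature. Compounds were pinned during FDSS kinetic reading; agonist 54-4 at EC80 (4 uM final) then added.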
TRPML1 ag = agonists of human TRPML1 channel. TRPML1-expressing cells, Ca2+ dye fluorescence, FDSS; host cell line not named in the record; reference of the full effect not given here. activation, % (concentration not given with the values). 410,000 tested, 0.12% active; in the data active = activation above about 50%; inconclusive = about 30% to 50%; inactive = below about 30%; also: 0% is about no effect; the text of the record puts the active cut at 80%
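Cells: TRPML1-DL, 1X Tet inducer, ~16 h at 37 degrees C/5% CO2. Dye: ABD Ca8 no-wash + quencher, 45-90 min RT. Read: 10 s baseline, compound add, 110 s agonist phase; 54-4 EC80 (4uM final), 110 s antagonist phase.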
D2 agonist = agonists of human D2 dopamine receptor (beta-arrestin) | DiscoveRx PathHunter D2 beta-arrestin, luminescence, 90 min; 100% = 57 uM dopamine signal | activation, % (concentration not given with the values) | 360,000 tested, 0.084% active | AID 624465; in the data active = activation above about 40%; inconclusive = about 15% to 40%; inactive = below about 15%; also: compound concentration not given in the record; the text of the record calls up to 30% inactive
Target sequence (P14416 whole entry, looked up): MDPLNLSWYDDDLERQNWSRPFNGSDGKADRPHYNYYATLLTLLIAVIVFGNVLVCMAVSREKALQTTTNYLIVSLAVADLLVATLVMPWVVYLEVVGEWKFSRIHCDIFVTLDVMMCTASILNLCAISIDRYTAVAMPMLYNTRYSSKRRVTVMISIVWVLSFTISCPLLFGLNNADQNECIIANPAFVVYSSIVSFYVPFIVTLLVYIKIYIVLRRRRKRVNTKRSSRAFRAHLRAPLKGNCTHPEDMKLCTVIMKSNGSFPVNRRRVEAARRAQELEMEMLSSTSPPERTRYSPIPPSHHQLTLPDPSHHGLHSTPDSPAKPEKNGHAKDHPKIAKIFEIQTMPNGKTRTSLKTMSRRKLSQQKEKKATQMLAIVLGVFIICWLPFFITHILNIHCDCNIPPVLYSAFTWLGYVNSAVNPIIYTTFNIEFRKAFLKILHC
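DiscoveRx PathHunter D2 beta-arrestin cells (2,100/well) attached overnight, then compound-stimulated 90 min at 37 C in HBSS/10 mM HEPES/0.1% Tween-20 buffer; beta-galactosidase complementation read by luminescence after 1 h at ambient temperature. Dopamine 57 uM final (EC100) as control.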
D2 potentiator = human D2 receptor positive allosteric modulation | P14416 | DiscoveRx D2 beta-arrestin cells, luminescence, 90 min; 100% = 57 uM dopamine signal | potentiation, % (concentration not given with the values) | 360,000 tested, 0.23% active | AID 624464; active = potentiation of 50% or more; inconclusive = 30% to 50%; inactive = 30% or less;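 also: compound concentration not given in the record; tested on top of an EC20 dose of dopamine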
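PathHunter beta-arrestin assay in DiscoveRx D2 cells. Compounds were added with an EC20 of dopamine (50 nM final) for 90 min at 37 deg C. Luminescence was read 1 h after detection reagent, with 57 uM dopamine as the EC100 control.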
PINK1 modulator = PINK1 expression modulation. PINK1 immunofluorescence, high-content cytometry, 24 h. Potency, µM (titrated, usually from 76.6 µM), inactives show at the top dose activation (PINK1 increase), actives largely listed as activators. 410,000 tested, 0.2% active. AID 624263; active = well fitted activation curve with a large enough effect; inconclusive = small, poorly fitted or top-dose-only effect; inactive = flat fitted curve, though single readings scatter; cell line not stated here;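 also: potency is read from the fitted curve at half-maximal effect; % of control where 0% means no effect; nearly all actives have a fitted effect of over 65% in size; a mitochondrial uncoupler was the plate control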
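PINK1 protein, normally rapidly degraded, was detected by immunofluorescence after 24 hour compound treatment of a stable cell line. Titration data (5 concentrations) came from laser-scanning cytometry, with CCCP-treated wells as controls.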
Six1-Eya2 blk = inhibitors of human Six1/Eya2 interaction. AlphaScreen GST-Six1/His-Eya2 binding, biochemical; active compounds read low; control for the full effect not named in the record. AID 651725. activity change, % (test concentration not listed). 360,000 tested, 0.56% active; in the data active = activity change below about -65%; inconclusive = about -30% to -65%; inactive = above about -30%; also: % is scaled to controls: 0 for no effect and ±100 for the full control effect
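AlphaScreen luminescence read after one hour at 37 °C in darkness. Pin-transferred compounds met GST-Six1 and His-Eya2 protein (5X stock 250 nM/500 nM) plus glutathione donor and Ni-chelate acceptor beads (5X, 50 ug/mL).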
Active calls of the source: *; . = not tested or not shown; [ ] = dose if it differs, or a comment.

SMILES | TRPML1 inh | TRPML1 ag | D2 agonist | D2 potentiator | PINK1 modulator | Six1-Eya2 blk
CCOC(=O)C1=C(O)C(=O)N(c2ccc(S(N)(=O)=O)cc2)C1c1ccc(Cl)cc1 (stereo unspecified) | -15 | -0.2 | -0.4 | 2 | 0.4% | -1
CC1(C)Cc2ccccc2C(NNC(=O)c2cccnc2)=N1 | -6 | -0.6 | -2.9 | -19 | 1.3% | -3
COc1cc(/C=C(/NC(=O)c2ccccc2)C(=O)Nc2ccc(O)cc2)c([N+](=O)[O-])cc1OC | 1 | 1.8 | -1.3 | -7 | 1.5% | -2
O=C(NNC(=O)[C@@H]1CCCC[C@@H]1C(=O)O)c1cccs1 | 6 | -0.6 | -4.6 | 1 | 0.5% | 0
COc1ccc(OC)c(CNC(=O)Cn2nc(C)c3nn(-c4ccc(Cl)cc4)c(C)c3c2=O)c1 | 4 | 1.3 | . | . | 0.7% | .
Cc1cccc(-n2c(CNC(=O)c3ccc(S(=O)(=O)N(C)C)cc3)nnc2SCC(=O)Nc2ccc(F)cc2)c1 | 44 | 2.1 | -0.3 | 17 | 3.9% | -13
CCCCCNC(=O)c1ccc2c(=O)[nH]c3c(C(=O)NCC4CCCO4)sc(=S)n3c2c1 (stereo unspecified) | 10 | 0.8 | -1.7 | -1 | -0.3% | -18
O=C(N=c1nc2ccccn2s1)c1ccccc1 | 6 | 0.6 | -3.7 | -4 | 4.2%[38.3 µM] | 2
COc1ccc(C#CC2=CC(=O)CC(C)(C)C2)cc1 | 9 | -0.5 | -10 | -4 | 0.3% | -4
CCCNC(=O)OCc1cccnc1Sc1ccc(C)cc1 | 30 | 2.6 | -0.9 | 2 | 1.9% | 1
Cc1nn(C)c(C)c1-c1c(C#N)c(N)nc2c1CCCCCC2 | -5 | 0.4 | -2.0 | 30 | -1.7% | 7
O=C(CSc1nnnn1C1CCCC1)N1CCCc2ccccc21 | 4 | -0.3 | -0.8 | -9 | -6.0%[38.3 µM] | 10
O=C(COC(=O)C1CCC1)Nc1cccc(S(=O)(=O)N2CCOCC2)c1 | -2 | 2.1 | 3.8 | 6 | -1.9% | -4
CCOc1ccc2nc(NC(=O)CS(=O)(=O)c3ccccc3)sc2c1 | 1 | -0.6 | 2.2 | 9 | 2.5% | -7
Cc1ccc(-c2cc(C(=O)N3CCN(c4ncccn4)CC3)c3ccccc3n2)cc1 | 19 | 1.6 | -1.6 | 9 | -0.4% | -3
Cc1cc(C)cc(NC(=O)OCCN2CCN(Cc3ccccc3)CCC2=O)c1 | 2 | -0.1 | -11 | -9 | 1.3% | 9
COc1cccc(-c2cc(C(F)(F)F)n3ncc(C(=O)N4CCc5ccccc5C4)c3n2)c1 | 8 | 1.8 | -5.8 | -3 | -2.6% | 7
O=C(c1ccc(COc2c(F)c(F)c(F)c(F)c2F)o1)N1CCN(Cc2ccc3c(c2)OCO3)CC1 | -2 | 3.4 | 0.7 | -27 | 0.7% | -11
N=c1n(Cc2ccccc2)c2ccccc2n1CC(O)c1ccco1 (stereo unspecified) | 31 | -0.2 | -2.4 | -13 | 0.8% | -11
COc1ccc2oc(-c3ccccc3[N+](=O)[O-])cc(=O)c2c1 | -11 | 0.6 | 2.1 | -1 | 2.4% | -10

Seven compounds picked at random from the list so far, as already listed:
SMILES | TRPML1 inh | TRPML1 ag | D2 agonist | D2 potentiator | PINK1 modulator | Six1-Eya2 blk
O=C(N=c1nc2ccccn2s1)c1ccccc1 | 6 | 0.6 | -3.7 | -4 | 4.2%[38.3 µM] | 2
COc1cccc(-c2cc(C(F)(F)F)n3ncc(C(=O)N4CCc5ccccc5C4)c3n2)c1 | 8 | 1.8 | -5.8 | -3 | -2.6% | 7
N=c1n(Cc2ccccc2)c2ccccc2n1CC(O)c1ccco1 (stereo unspecified) | 31 | -0.2 | -2.4 | -13 | 0.8% | -11
CC1(C)Cc2ccccc2C(NNC(=O)c2cccnc2)=N1 | -6 | -0.6 | -2.9 | -19 | 1.3% | -3
Cc1cccc(-n2c(CNC(=O)c3ccc(S(=O)(=O)N(C)C)cc3)nnc2SCC(=O)Nc2ccc(F)cc2)c1 | 44 | 2.1 | -0.3 | 17 | 3.9% | -13
COc1cc(/C=C(/NC(=O)c2ccccc2)C(=O)Nc2ccc(O)cc2)c([N+](=O)[O-])cc1OC | 1 | 1.8 | -1.3 | -7 | 1.5% | -2
Cc1cc(C)cc(NC(=O)OCCN2CCN(Cc3ccccc3)CCC2=O)c1 | 2 | -0.1 | -11 | -9 | 1.3% | 9

Other structures:
SMILES | TRPML1 inh | TRPML1 ag | D2 agonist | D2 potentiator | PINK1 modulator | Six1-Eya2 blk
COCCOC(=O)c1c(C)nc(SCC(=O)Nc2ccc(C)cc2)c(C#N)c1-c1ccco1 | -1 | 1.7 | 3.4 | -2 | 0.3% | 0
CCCCn1c(N)c(N(CCOC)C(=O)CN2C(=O)c3ccccc3C2=O)c(=O)[nH]c1=O | -8 | 0.0 | -2.0 | -2 | -0.7% | 4
Cc1cc(Br)ccc1NC(=O)CCCOc1cc(=O)n(C)c2ccccc12 | 10 | 0.3 | -4.0 | -9 | 2.9% | -6
O=C(O)c1cn(Cc2ccccn2)c(=O)c2ccccc12 | -7 | -0.3 | -1.9 | 5 | 0.6% | 11
O=C(c1ccc(-c2cccc([N+](=O)[O-])c2)o1)N1CCN(c2ccc([N+](=O)[O-])cc2)CC1 | 29 | 0.8 | 4.1 | -15 | 5.4% | -7
COc1ccccc1CNC(=O)CCn1c(=O)c2ccccc2n(CC(=O)Nc2ccc(C)cc2C)c1=O | -9 | -0.4 | . | . | 1.6% | .
Cc1ccc(N(C(=O)CNC(=O)c2ccco2)C(C(=O)NC2CCCC2)c2ccncc2)c(C)c1 (stereo unspecified) | -11 | 0.3 | -0.2 | -1 | 2.1% | 0
O=C(NCc1ccc(Cl)cc1Cl)c1ccc2nc[nH]c2c1 | 9 | -0.7 | -1.8 | -2 | 3.2% | -8
O=C(N=Nc1c(O)[nH]c2ccccc12)c1cc(-c2cccs2)[nH]n1 | -4 | -0.2 | -5.5 | 2 | 9.3% | -10
Cc1nnsc1C(=O)Oc1ccccc1Cl | -7 | 0.0 | . | . | -1.2% | .
CCOC(=O)CSc1nnc(CNC(=O)c2ccccc2OC)n1-c1ccc(OC)cc1 | 1 | -0.1 | -1.1 | -14 | -1.0%[38.3 µM] | -1
COc1ccc(CNC(=O)C(C)N2CCN(c3ccc(C(C)=O)cc3)CC2)cc1 (stereo unspecified) | -15 | 0.0 | -0.2 | -4 | 0.8% | 9
COc1ccc(C2C(C(=O)Nc3cccc(C)n3)c3ccccc3C(=O)N2C)cc1 (stereo unspecified) | -3 | 0.8 | -1.9 | -3 | 0.3% | 3
CNc1cc(C(F)(F)F)nc(-c2ccccn2)n1 | 0 | 0.0 | -0.1 | -11 | -1.9% | -2
CC(C)c1ccc(N(CC(=O)NCCSC(C)(C)C)S(C)(=O)=O)cc1 | -1 | 0.0 | -0.4 | -10 | . | 0
CCOC(=O)CSc1nc2c(cnn2-c2ccc(Cl)cc2)c(=O)[nH]1 | -6 | -0.2 | 0.3 | -11 | 2.8% | 5
CCCC(=O)c1ccc(N2CCN(S(=O)(=O)c3ccccc3)CC2)c(F)c1 | 1 | -0.2 | -1.3 | -2 | 0.3% | -3
Cc1ccc2nc(SCC(=O)c3cc(C)n(C)c3C)[nH]c2c1 | -4 | 2.9 | -6.0 | -16 | 2.6% | -13
O=C(NCCCn1ccnc1)c1cnn2c1NC(c1ccccc1)CC2C(F)(F)F (stereo unspecified) | -4 | 0.2 | 0.5 | -21 | . | -1
CCC1CCCCN1CC(=O)c1c(C)[nH]c2cc(C)ccc12 (stereo unspecified) | 14 | 1.0 | 2.8 | -2 | 1.6% | 1
Cn1c(CC(=O)Nc2ccccc2Cl)nnc1SCC(=O)Nc1nncs1 | 61 | -0.3 | -2.7 | -8 | 0.4% | 6
CCN1C[C@@H]2[C@@H]3C(=O)N(Cc4ccccc4)C(=O)[C@@H]3[C@](Cc3ccccc3)(C1=O)N2C(=O)c1ccc(Cl)c(Cl)c1 | -10 | 0.2 | -1.2 | 3 | 1.6% | -5
COC(=O)c1ccccc1NC(=O)Cn1c(-c2nonc2N)nc2ccccc21 | 5 | 0.2 | -0.3 | 10 | 15%[38.3 µM] | 3
CCO[C@@H]1OC(C(=O)Nc2ccccc2)=C[C@H](c2ccc(Br)cc2)[C@H]1CCCO | -4 | 1.1 | -3.4 | -14 | 17% | -2
CN(C)c1ccc(C2CC(=O)C=C(Nc3ccccc3N)C2)cc1 (stereo unspecified) | 2 | -0.9 | -1.7 | 8 | 0.8% | -26
COc1ccc(-n2c(C)cc(C(=O)CSc3nnc(-c4cccs4)o3)c2C)cc1 | 13 | 0.2 | 2.8 | 21 | -2.4% | -14
COc1ccc(NC(=O)C[C@H]2C(=O)N(CCc3ccccc3)C[C@@H]2c2ccc(OC)cc2)cc1 | 1 | -0.4 | -7.3 | -4 | -0.6% | -1
COC(=O)c1cc(OC)c(OC)cc1N1C(=O)CC(C)(C)CC1=O | 36 | 0.0 | 0.9 | -5 | 1.3% | 1
Cc1ccc(Nc2nc(NCCO)c3ccccc3n2)cc1C | 11 | 0.0 | 6.1 | -11 | -0.9% | 6
COc1ccc(OC)c(S(=O)(=O)Nc2ccc(F)cc2)c1 | 39 | 0.2 | -2.8 | -4 | 9.7%[38.3 µM] | 2
CC(=O)c1ccc(NC(=S)Nc2ccc3cn[nH]c3c2)cc1 | 8 | -0.2 | 3.4 | -41 | 3.7% | -17
O=C(Cn1c(SCC(=O)Nc2ccc(F)cc2)nc2ccccc21)NCc1ccc(Cl)cc1 | 9 | -0.3 | . | . | 6.0% | .
O=C(COc1ccccc1Br)NC(=O)NC1CCCC1 | 23 | 5.3 | -2.7 | -2 | 6.3% | 6
CCN(CC)CCN1C(=O)/C(=C\c2ccc(Cl)c([N+](=O)[O-])c2)SC1=Nc1ccc(OC)cc1 | 16 | -0.2 | -4.6 | -20 | -4.1% | -16
O=C(COC(=O)Cc1ccc(Br)cc1)Nc1ccc(N2CCOCC2)cc1 | -16 | 0.2 | -4.0 | -1 | 2.8% | -1
CCN(Cc1ccccc1)C(=O)Cc1c[nH]c2ccccc12 | -9 | -0.3 | 4.4 | -6 | 3.9% | 0
O=C(NCC(F)(F)F)[C@H]1O[C@@H](n2ccc(=O)[nH]c2=O)[C@H](O)[C@@H]1O | . | -0.1 | 0.8 | -5 | 1.7% | -9
Cc1ccc(NC(=O)c2cn3c4c(ccc(Cl)c4c2=O)OC(C)C3)c(C)c1 (stereo unspecified) | -2 | -0.1 | . | . | 0.3% | .

From PubChem BioAssay
